Bioassay records (PubChem)
KCNQ2 block – KCNQ2 potassium channel inhibitors, primary screen, cell-based, CHO-K1, FluxOR thallium flux, B-score (AID 2156) | 20 min; active compounds read low; only compounds with negative scores are shown here; some inactives read as strong as hits | B-score at 10 µM | 1.1% of 310,000 active | O88943;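 active means fluorescence ratio B-score at most minus 3 library SDs, with starting brightness B-score within 2 library SDs, cut at about -5.5 in these data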
Target sequence (O88943 whole entry, looked up): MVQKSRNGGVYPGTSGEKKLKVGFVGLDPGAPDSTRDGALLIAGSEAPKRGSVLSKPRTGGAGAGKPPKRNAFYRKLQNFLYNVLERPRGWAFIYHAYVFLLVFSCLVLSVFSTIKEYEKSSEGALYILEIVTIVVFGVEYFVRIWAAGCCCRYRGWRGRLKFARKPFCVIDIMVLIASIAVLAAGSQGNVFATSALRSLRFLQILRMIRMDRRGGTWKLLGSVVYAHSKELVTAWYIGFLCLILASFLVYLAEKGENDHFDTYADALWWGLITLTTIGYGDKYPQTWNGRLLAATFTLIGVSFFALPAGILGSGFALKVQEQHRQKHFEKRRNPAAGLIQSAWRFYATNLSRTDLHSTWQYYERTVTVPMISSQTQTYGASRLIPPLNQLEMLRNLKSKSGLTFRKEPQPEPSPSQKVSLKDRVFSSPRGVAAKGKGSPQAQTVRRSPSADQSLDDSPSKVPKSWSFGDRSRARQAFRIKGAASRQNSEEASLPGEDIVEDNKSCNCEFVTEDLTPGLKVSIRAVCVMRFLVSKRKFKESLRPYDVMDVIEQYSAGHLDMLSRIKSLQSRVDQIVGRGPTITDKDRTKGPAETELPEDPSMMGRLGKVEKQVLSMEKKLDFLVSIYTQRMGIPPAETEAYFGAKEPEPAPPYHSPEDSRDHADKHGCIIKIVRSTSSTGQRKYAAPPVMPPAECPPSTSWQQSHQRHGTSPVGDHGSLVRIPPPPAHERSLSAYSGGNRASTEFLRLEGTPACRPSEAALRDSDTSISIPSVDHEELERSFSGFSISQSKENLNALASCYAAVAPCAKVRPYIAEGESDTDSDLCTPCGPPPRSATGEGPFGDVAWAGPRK
KCNQ2 block baseline – also measured in KCNQ2 block; calls as there; B-score; measured here: initial fluorescence intensity artifact check;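 brightness before thallium and not channel activity; 0 = typical well and far values either way flag optical interference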
* hit, by the source's call; i = inactive. A portion of the library; rates above refer to the full screens.

cpd	KCNQ2 block	KCNQ2 block baseline	mol
1	i	0.42	Cc1sc(NC(=O)c2ccco2)c(CN2CCN(c3ccccn3)CC2)c1C
2	i	0.54	O=C(Nc1ccccc1)Nc1cc(S(=O)(=O)N2CCOCC2)ccc1N1CCCC1
3	i	-2.4	Cc1cccc(N2CCN(C(=O)c3ccccc3OCc3c(C)noc3C)CC2)c1C
4	i	0.06	O=C1CC(N2CCc3ccccc32)C(=O)N1c1ccc(F)cc1 (stereo not drawn)
5	i	2	COc1ccc(C2C=C(c3ccc(C)c(C)c3)Nc3ncnn32)c(OC)c1OC (stereo not drawn)
6	i	0.35	Cc1n[nH]c(C)c1CCNC(=O)C1CCC(=O)N(Cc2ccccc2F)C1 (stereo not drawn)
7	i	-0.77	Cc1cc(C)c(N(C(=O)CN2C(=O)c3ccccc3S2(=O)=O)C(C(=O)NCC2CCCO2)c2ccc(F)cc2)c(C)c1 (stereo not drawn)
8	i	2.4	CCCN(CCC)C(=O)Cn1ccc(=N)c2ccccc21
9	i	-0.22	C=CCn1c(-c2sc(-c3ccccc3)nc2C)n[nH]c1=S
10	i	-2.5	Cc1ccc(-c2nc(CS(=O)(=O)CC(=O)N3CCOCC3)c(C)o2)cc1
11	i	-0.78	O=C(NCCc1ccccc1)c1ccc2c(c1)OCCCO2
12	i	-0.05	Cc1c(C(=O)NCc2ccc3c(c2)OCO3)oc2ccccc12
13	i	-1.7	Cc1nc2ccc(NC(=O)NCCCO)cc2s1
14	i	2.6	O=C1NC(c2ccc(Br)cc2)Oc2ccccc21 (stereo not drawn)
15	i	1.9	Cn1cc(CN2CCCC(CO)(Cc3ccccc3)C2)c2ccccc21 (stereo not drawn)
16	i	-0.22	COc1ccc(S(=O)(=O)NCc2cccnc2)cc1OC
17	i	-0.52	O=[N+]([O-])c1cccc(-c2nc(-c3cccs3)c(-c3cccs3)[nH]2)c1
18	i	0.35	Cc1ccc(NC(=O)COc2ccc3oc4c(c3c2)CCCC4)nc1
19	i	0.75	Cc1nc(-c2cccnc2)sc1C(=O)Nc1ccc(F)cc1F
20	i	0.01	COC(=O)CNc1nc(Cl)nc(N2CCC(C)CC2)n1
21	i	-0.72	Fc1ccc(C2CCCN2Cc2nc(Cc3ccccc3F)no2)cc1 (stereo not drawn)
22	i	-0.34	COc1ccc2[nH]c3c(Cl)ncnc3c2c1
23	i	-0.25	COc1ccc(/C=N/Nc2cc(C)nc(N3CCOCC3)n2)c(OC)c1
24	i	-1.4	Cc1nn(Cc2cccc(C(=O)NCC(C)C)c2)c(C)c1Br
25	i	0.71	O=C1CC(c2ccccc2)CC(O)=C1C=Nc1ccc(Cl)cc1 (stereo not drawn)

7 successive records out of the list so far:
cpd	KCNQ2 block	KCNQ2 block baseline	mol
16	i	-0.22	COc1ccc(S(=O)(=O)NCc2cccnc2)cc1OC
17	i	-0.52	O=[N+]([O-])c1cccc(-c2nc(-c3cccs3)c(-c3cccs3)[nH]2)c1
18	i	0.35	Cc1ccc(NC(=O)COc2ccc3oc4c(c3c2)CCCC4)nc1
19	i	0.75	Cc1nc(-c2cccnc2)sc1C(=O)Nc1ccc(F)cc1F
20	i	0.01	COC(=O)CNc1nc(Cl)nc(N2CCC(C)CC2)n1
21	i	-0.72	Fc1ccc(C2CCCN2Cc2nc(Cc3ccccc3F)no2)cc1 (stereo not drawn)
22	i	-0.34	COc1ccc2[nH]c3c(Cl)ncnc3c2c1

(next part)
cpd	KCNQ2 block	KCNQ2 block baseline	mol
26	i	28	CCN(CC)c1ccc(/C=C(/C#N)c2nc3ccc(C)cc3[nH]2)c(OC(C)C)c1
27	i	2.3	COc1ccc(N=Cc2c(O)c3ccccc3n2C(C)=O)cc1
28	i	-0.63	CCCCC(=O)NC(c1ccccc1)c1ccc2cccnc2c1O (stereo not drawn)
29	i	1.8	CCOC(=O)c1csc(NC(C)=O)n1
30	i	0.02	FC(F)(F)c1cc(CCN2CCNC[C@@H]2Cc2ccccc2)cc(C(F)(F)F)c1
31	i	0.07	CCC(CO)NCc1ccc(OCC(O)c2ccccc2)c(OC)c1 (stereo not drawn)
32	i	-0.28	CCC1CCC(NC(=O)Nc2cccc(OC)c2)CC1 (stereo not drawn)
33	i	0.17	Cc1ccc(C(=O)C(OC(=O)CNC(=O)c2ccc(Cl)cc2)c2ccccc2)cc1 (stereo not drawn)
34	i	0.16	O=C(O)Cc1ccc(C(=O)c2ccccc2F)s1
35	i	-0.79	O=CN1CCN(C(=S)NC(=O)c2ccc(Cl)cc2)CC1
36	i	0.23	COC(=O)CCCNC(=O)OCc1ccc([N+](=O)[O-])cc1
37	i	-0.67	CCN1CCN(CCCCSc2ccccc2)CC1
38	i	1.6	CCOC(=O)N1CCN(S(=O)(=O)c2ccc(Br)cc2)CC1
39	i	-1.3	O=C(C1=C[C@H](c2ccc(C(F)(F)F)cc2)C[C@H](OCc2ccc(CO)cc2)O1)N1CCN(Cc2ccccc2)CC1
40	i	0.8	Cc1ccc(NC(=O)CSc2nc3[nH]ncc3c(=O)[nH]2)cc1Cl
41	i	0.96	Cc1cc(C)c(C#N)c(N2CCN(c3ccccc3)CC2)n1
42	i	0.8	O=C1c2ccccc2S(=O)(=O)N1CC(O)Cn1ccc2ccccc21 (stereo not drawn)
43	i	0.22	CSCCC(NS(=O)(=O)c1ccc(C)cc1)C(=O)NC1CCCCCC1 (stereo not drawn)
44	i	6.5	CC1CCc2sc(C(=O)NCCCn3ccnc3)cc2C1 (stereo not drawn)
45	i	-0.64	CCOC(=O)C(C)On1c(SC(C)C(=O)OCC)nc2ccccc2c1=O (stereo not drawn)
46	i	-0.58	COC(=O)C1C(=O)OC(C)(C)C1C(C)C(=O)c1ccc(C)cc1C (stereo not drawn)
47	-5.8*	-1.5*	COc1ccccc1NC(=O)OC(C)c1ccc(Cl)cc1 (stereo not drawn)
48	i	0.99	CCOC(=O)c1ccc(-c2ccc(/C=N/NC(=O)CN(c3ccccc3Br)S(C)(=O)=O)o2)cc1
49	i	1.1	COc1ccc(C(=O)Nn2c(CC(C)C)nc3cc(Cl)ccc3c2=O)c(OC)c1
50	i	1.7	O=[N+]([O-])c1ccc(/C=N\NS(=O)(=O)c2ccc(F)cc2)o1

(further entries)
cpd	KCNQ2 block	KCNQ2 block baseline	mol
51	i	-0.76	Cc1cc(C)cc(NC(=O)Cn2nnc(C(=O)NCc3ccccc3Cl)c2N)c1
52	i	-0.54	CCCC(C)NC(=O)CSc1nnc2ccccn12 (stereo not drawn)
53	i	0.35	CCCN(CCC)S(=O)(=O)c1ccc(C)cc1
54	i	-0.03	Cc1occc1-c1nnc(SCC(=O)N2CC(=O)Nc3ccccc32)n1CC(C)C
55	i	0.33	COc1ccc(CNC(=O)CNC(=O)c2c(C)nn(C)c2Cl)cc1
56	i	1.6	COc1ccccc1CCN1CCCC(CN(C)Cc2ccc(OCCO)cc2)C1 (stereo not drawn)
57	i	1.8	COc1ccccc1N1CCN(Cc2ccc(OC)c(OC)c2OC)CC1
58	i	-0.82	Cc1c(OCc2ccc(C(=O)O)cc2)ccc2c(-c3ccccc3)cc(=O)oc12
59	i	-1.1	COc1ccc([N+](=O)[O-])cc1NC(=O)C(C)Sc1ccc(C)cc1 (stereo not drawn)
60	i	-0.25	Cc1ccccc1CSCc1nc2ccccc2[nH]1
61	i	1.6	COc1ccc(OCC(=O)NNC(=O)c2cccc(S(=O)(=O)N(C)C)c2)cc1
62	i	1.4	COc1ccc(C(=O)NCC(=O)Nc2ccccc2)cc1OC
63	i	2.5	C=CCNC(=O)N1CCCC(C(=O)c2cccc(OC(C)C)c2)C1 (stereo not drawn)
64	i	-0.12	CNC(=O)NC(=O)Cn1nc2n(c1=O)-c1ccccc1SC2
65	i	0.3	O=C(NC1CCCCC1)c1nn2c(C(F)(F)F)cc(-c3ccco3)nc2c1Br
66	i	2.7	Cc1cc(NC(=O)COc2ccc(Cl)cc2Cl)n(-c2ccccc2)n1
67	i	2.1	CCOCCCn1c(=NC(=O)c2cccs2)c(C#N)cc2c(=O)n3cccc(C)c3nc21
68	i	1.4	CCn1c(=O)c2c(nc3n2CCCN3CCc2ccccc2)n(C)c1=O
69	i	-2.1	O=C(Nc1ccc2c(c1)OCO2)C1CCN(C(=O)c2ccc([N+](=O)[O-])cc2)CC1
70	i	-0.32	COCCCNC(=O)CNC(=S)N(Cc1ccccc1F)C1CCCCC1
71	i	0.45	CCc1nc2oc(C(=O)c3ccccc3)c(N)c2c2c1COC(C)(C)C2
72	i	1.2	c1ccc(C2=Nc3ccccc3NC(c3ccccc3)C2)cc1 (stereo not drawn)
73	i	-0.65	O=C(c1cc2ccccc2cc1O)N1CCN(c2ccccn2)CC1
74	i	1.4	Fc1ccccc1CSc1ccc(-c2ccco2)nn1
75	i	-0.19	CC(NC(=O)c1ccncc1)c1ccccc1 (stereo not drawn)

Further entries.
cpd	KCNQ2 block	KCNQ2 block baseline	mol
76	i	0.67	Cc1cc(=O)oc2c3c(cc(OCC(=O)Nc4cccnc4)c12)OC(C)(C)CC3
77	i	-0.28	COc1ccc(OCCCN2CCCCCC2)cc1
78	i	-0.49	CCN(CC(=O)NCc1ccc(Cl)cc1)C(=O)CSc1ccc(Br)cc1
79	i	0.43	COc1ccc(CNC(=O)CN(c2ccccc2)S(=O)(=O)N(C)C)cc1
80	i	1.4	Cc1cc(C(=O)COC(=O)CN(C)S(=O)(=O)c2ccc(Cl)cc2)c(C)n1Cc1cccs1
81	i	1.7	COc1ccc(Cl)cc1NC(=O)N1CCN(C2CCCCC2)CC1
82	i	0.1	Cc1ccc(N(C(C)C(=O)Nc2cc(Cl)ccc2Oc2ccccc2)S(C)(=O)=O)cc1 (stereo not drawn)
83	i	0.01	CS(=O)(=O)c1ccc(Cl)c(NC(=O)CSC(=S)N2CCCC2)c1
84	i	-0.26	O=C(CCC(=O)N1CCOCC1)c1ccc(F)cc1
85	i	-0.29	O=C(NCCCCc1ccccc1)C1CC(c2ccccc2[N+](=O)[O-])=NO1 (stereo not drawn)
86	i	0.06	O=C(c1ccc(N2CCCC2=O)cc1)N1CCOCC1
87	-8.9*	-0.6*	O=C(Nn1c(SCc2cccc([N+](=O)[O-])c2)nc2ccccc2c1=O)c1ccccc1
88	i	0.3	CC(C)(C)n1nnnc1C(c1cccc(C#N)c1)N1CCCCCC1 (stereo not drawn)
89	i	-0.56	COc1ccccc1CNC(=O)C(=O)NCC1OCCN1S(=O)(=O)c1ccc2c(c1)OCCO2 (stereo not drawn)
90	i	2	COCc1c(C(=O)N/N=C(/C)c2ccc(OCc3ccccc3)cc2)nnn1-c1nonc1N
91	i	1.2	Cc1ccc(NC(=O)CNC(=O)c2cccs2)nc1
92	i	0.26	CC(C)CNC(=O)CC(=O)N/N=C/c1cccs1
93	i	0.48	O=c1cc(CO)oc(CN2CCN(CCO)CC2)c1O
94	-7.3*	1.3*	O=C(/C=C/Nc1ccc(Nc2ccccc2)cc1)c1cccs1
95	i	3	O=C(Nc1cccc(C(F)(F)F)c1)c1cccnc1N1CCOCC1
96	i	-0.29	CC(C)c1cc(-c2cc(-c3ccccc3)on2)nc(NC2CCCC2)n1
97	i	0.31	CCOc1ccc(S(=O)(=O)N2CCCC(C(=O)NCC3CCCO3)C2)cc1 (stereo not drawn)
98	-8.6*	1.4*	CCn1c(N2CCN(C(=O)C34CC5CC(CC(C5)C3)C4)CC2)nc2ccccc21
99	i	-0.88	O=C(COc1coc(CN2CCc3ccccc32)cc1=O)Nc1ccccc1
100	i	-0.87	Cc1ccc(Cn2cc(SCC(=O)Nc3nccs3)c3ccccc32)cc1

Later entries:
cpd	KCNQ2 block	KCNQ2 block baseline	mol
101	i	1.9	Cc1ccc(C(=O)NC(C)c2ccc(F)cc2)cc1 (stereo not drawn)
102	i	0.15	Cc1csc2ncc(C(=O)Nc3ccccc3Cl)c(=O)n12
103	i	-0.08	Cc1nc(Oc2ccccc2)c2oc3ccccc3c2n1
104	i	-0.81	Cc1nnc(NC(=O)c2sc3nc(-c4cccs4)cc(C(F)(F)F)c3c2N)s1
105	i	0.3	O=c1c2ccccc2ncn1Cc1ccc(Cl)c(Cl)c1
106	i	-1.1	CCCCN(C(=O)Cn1nnc2ccccc21)C(C(=O)NCCOC)c1cccs1 (stereo not drawn)
107	i	0.12	CN(CC(=O)Nc1ccc(F)c(F)c1F)C(=O)C1CC(=O)N(c2ccc3c(c2)OCCO3)C1 (stereo not drawn)
108	i	-0.03	CCOC(=O)/C(=N\Nc1ccc(OC)cc1)c1csc(Nc2ccccc2)n1
109	i	0.19	O=C(O)c1[nH]c2ccccc2c1CC(=O)N1CCN(c2ccccc2)CC1
110	i	-0.21	Cc1ccc(C2CC2c2n[nH]c(=S)n2-c2ccc(Cl)cc2)cc1 (stereo not drawn)
111	i	2.4	Cc1ccc(N2CN=c3s/c(=C\c4cccnc4)c(=O)n3C2)cc1
112	i	-1.2	COc1ccccc1N1CCN(C(=O)c2ccc(N3CCCCS3(=O)=O)cc2)CC1
113	i	-0.48	O=C1CCN(Cc2cccnc2)CCN1[C@H](CO)c1ccccc1
114	i	0.94	Brc1cc2c(cc1-c1nc3ccccc3s1)OCO2
115	i	-1.6	O=C(NC1CCN(S(=O)(=O)c2cccc(Cl)c2)CC1)C1CCCCC1
116	i	-1.9	CCC(=O)Nc1nnc(S(=O)(=O)N(CC)c2cc(C)cc(C)c2)s1
117	i	0.85	CSCCC(NC(=O)c1ccc(Cl)cc1)C(=O)OCC(=O)c1ccc[nH]1 (stereo not drawn)
118	i	2.8	Cc1[nH]c2ccccc2c1C(C[N+](=O)[O-])c1ccco1 (stereo not drawn)
119	i	-1.4	CC1CCCCN1CC(=O)Nc1ccc(N2CCCCCC2)cc1 (stereo not drawn)

Part of the list above in a different format.
Fields: KCNQ2 block | KCNQ2 block baseline
103. Cc1nc(Oc2ccccc2)c2oc3ccccc3c2n1
  i | -0.08
104. Cc1nnc(NC(=O)c2sc3nc(-c4cccs4)cc(C(F)(F)F)c3c2N)s1
  i | -0.81
105. O=c1c2ccccc2ncn1Cc1ccc(Cl)c(Cl)c1
  i | 0.3
106. CCCCN(C(=O)Cn1nnc2ccccc21)C(C(=O)NCCOC)c1cccs1 (stereo not drawn)
  i | -1.1
107. CN(CC(=O)Nc1ccc(F)c(F)c1F)C(=O)C1CC(=O)N(c2ccc3c(c2)OCCO3)C1 (stereo not drawn)
  i | 0.12
